Compound activity as filed in PubChem BioAssay.
hNpr1 antagonist: Natriuretic polypeptide receptor (hNpr1) antagonism - Primary qHTS | Atrial natriuretic peptide receptor 1 (Homo sapiens), P16066 | hit rate 1.6% among 76,000 | Potency, µM (series often up to 46.3 µM), for the others: at the top dose activity change, negative = inhibition, hits mostly inhibitors | HEK293 hNpr1 GloSensor cGMP, ANP-stimulated luminescence; active = well fitted inhibition curve with a large enough effect; inconclusive = small, poorly fitted or top-dose-only effect; inactive = no such curve, though single readings can be large or run the other way;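 also: nearly all actives have a fitted effect of over 60% in size; nearly all hits also lower the signal before the agonist is added; a reference antagonist and vehicle were the controls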
Target sequence (P16066 whole entry, looked up): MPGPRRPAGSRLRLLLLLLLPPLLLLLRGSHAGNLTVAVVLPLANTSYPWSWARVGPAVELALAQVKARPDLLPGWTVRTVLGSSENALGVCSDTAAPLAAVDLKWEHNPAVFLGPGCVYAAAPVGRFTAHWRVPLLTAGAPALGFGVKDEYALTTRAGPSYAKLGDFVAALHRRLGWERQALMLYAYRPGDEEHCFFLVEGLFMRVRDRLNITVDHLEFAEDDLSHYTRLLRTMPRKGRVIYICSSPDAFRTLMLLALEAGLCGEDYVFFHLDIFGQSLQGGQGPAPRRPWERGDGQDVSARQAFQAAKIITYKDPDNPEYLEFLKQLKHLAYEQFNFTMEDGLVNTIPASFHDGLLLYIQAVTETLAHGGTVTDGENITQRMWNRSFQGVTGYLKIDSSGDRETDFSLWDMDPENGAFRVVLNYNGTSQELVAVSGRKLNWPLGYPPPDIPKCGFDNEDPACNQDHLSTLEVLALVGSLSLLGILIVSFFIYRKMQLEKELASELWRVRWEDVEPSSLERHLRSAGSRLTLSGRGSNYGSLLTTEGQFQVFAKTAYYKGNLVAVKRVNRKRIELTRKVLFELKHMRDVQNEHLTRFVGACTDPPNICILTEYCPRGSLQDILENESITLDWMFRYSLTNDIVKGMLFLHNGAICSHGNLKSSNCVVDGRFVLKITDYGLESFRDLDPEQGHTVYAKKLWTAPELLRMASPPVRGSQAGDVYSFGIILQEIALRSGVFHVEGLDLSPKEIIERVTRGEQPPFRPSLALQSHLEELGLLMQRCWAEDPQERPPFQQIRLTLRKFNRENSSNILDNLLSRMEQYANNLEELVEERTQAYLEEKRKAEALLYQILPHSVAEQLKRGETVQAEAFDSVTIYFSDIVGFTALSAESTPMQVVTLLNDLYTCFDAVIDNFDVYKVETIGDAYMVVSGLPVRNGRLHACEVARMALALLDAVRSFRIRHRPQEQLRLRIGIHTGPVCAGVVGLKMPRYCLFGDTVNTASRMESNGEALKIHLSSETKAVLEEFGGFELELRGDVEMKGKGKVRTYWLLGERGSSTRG
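Compound pre-incubated 30 min at room temperature on GloSensor-loaded HEK293 cells stably carrying hNpr1 and the pGS-40F cGMP biosensor. Stimulation uses hNppA at 0.1 nM final; luminescence is taken at baseline and 20 min post-agonist.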
Active calls of the source: *; ? = inconclusive; [ ] = dose if it differs, or a comment. % is scaled to controls: 0 for no effect and ±100 for the full control effect; potency is read from the fitted curve at half-maximal effect.

SMILES	hNpr1 antagonist
Cc1csc(Nc2ccc3c(n2)CN(Cc2ccccc2C)C(=O)CO3)n1	?
Cc1nnc(CN(C)c2ccc(-c3nc(-c4cccc(Cl)c4)no3)cn2)o1	11µM*
O=c1c2c(CO)c(-c3ccccc3)nn2ccn1Cc1cccc(F)c1	2%
Cc1noc([C@@H]2CN(Cc3ccccc3C)C[C@H]2CO)n1	-1%
CCCCNc1ncc(C(=O)O)c(COC)n1	-3%
CCOc1ccccc1C1NC(=O)N(CC(=O)Nc2ccc(CC)cc2)C2=C1C(=O)OC2 (configuration not stated)	-4%
CCc1nc(-c2c3n(c(=O)n(CC(=O)OC)c2=O)CCCC3)no1	4%
CC1Cc2cc(C(=O)N3CCC4(CCC(=O)N(C)C4)CC3)ccc2O1 (configuration not stated)	-15%
COC(=O)C1=C(C)N(Cc2cc(F)cc(F)c2)C(=O)CC1c1ccccc1Cl (configuration not stated)	2%
COc1cccc(C(=O)NCC2CCCN(Cc3nc4ccccc4[nH]3)C2)c1OC (configuration not stated)	-7%
CC(CCCC(C)(C)O)n1cnc(-c2ccccc2)c1-c1ccc(CO)o1 (configuration not stated)	0%
COc1ccc(C)cc1NC(=O)N1CCCC2(C1)Nc1cccnc1NC2=NC1CCCC1 (configuration not stated)	-17%
CCC(=O)N(C1CCOCC1)C1CCN(Cc2cc(F)c(F)c(F)c2)CC1	-3%
COc1ccc(Cl)cc1C(=O)N1C[C@@H](CO)[C@H](c2nc(C)no2)C1	1%
c1ccc(CN2CCNc3cnc(Nc4ccncn4)cc3C2)cc1	-2%[70.6 µM]
O=C(c1ccc2nc(-c3ccc(F)cc3)cn2c1)N1CCSCC1	1%
Cc1noc([C@@H]2CN(C3CCCCCC3)C[C@H]2CO)n1	6%
CC(=O)Nc1ccccc1-c1c(C)nn2c1N(C(=O)Cc1cccc(Cl)c1)CCC2	-21%[70.6 µM]
COC(=O)C1=C(C)N=C2SC=C(CC(=O)NCC3CCCO3)N2C1c1ccccc1OC (configuration not stated)	-1%
COCC1CN(S(=O)(=O)c2ccc(C)c(F)c2)CC12CCNCC2 (configuration not stated)	1%
CCn1nc2n(c1=O)CCN(Cc1cc(C)ccc1C)C2=O	7%
COc1ccc(C(=O)N2CCN(c3cc(C(F)(F)F)ncn3)CC2)cc1F	?
COCC(=O)N[C@@H]1CN(Cc2ccc(C)cn2)C[C@H]1CO	4%
CC1(C(=O)N2CCCC2)CCCc2cnc(Nc3ccccc3)nc21 (configuration not stated)	2%[70.6 µM]
COC(=O)[C@H](NC(=O)C1=C[C@@H](NC(=O)c2ccc(SC)cc2OC)[C@@H](O)[C@H](O)C1)C(C)C	0%
Cc1ccc(-c2ccc3nnc(CNC(=O)c4cc(Cl)ccc4F)n3n2)cc1	3%
COC1C(=O)N(C2CCN(C(=O)c3sc(C)nc3C)CC2)C12CCOCC2 (configuration not stated)	-1%
Cc1ccccc1CNC(=O)C1CCCN(Cc2cccnc2)CCC(=O)NCC1 (configuration not stated)	-2%
COc1ccc(C(=O)N2CCC3(CC2)OC(=O)N(Cc2ccc(O)cc2)C3(C)c2ccccc2)cn1 (configuration not stated)	-12%
O=C1c2cc(N3CCOCC3)nc(-c3cnc4[nH]ccc4c3)c2CN1CC1CC1	-4%[70.6 µM]
CN(C)C(=O)CN1CCCC(N2CCN(c3cccc(C(F)(F)F)c3)CC2)C1 (configuration not stated)	5%
COc1ccc(-c2cc(N3CCC(NC(=O)c4cccc(C#N)c4)CC3)n[nH]2)cc1	1%
COc1ccc2c(c1)CCN=C2C[C@H]1CN(S(C)(=O)=O)CC[C@H]1CC(=O)O	-9%[70.6 µM]
CCC(=O)N(C1CCNCC1)C1CCOCC1	0%
COc1ccc(-c2ccc3c(c2)C(=O)N2CC[C@H](NC(=O)CSC)C[C@H]2C(=O)N3)cc1	2%[70.6 µM]
O=C(CCC[C@H]1NC[C@@H]2CC1CN(Cc1ccccc1)C2)NCc1ccc(F)cc1	3%

Quoted at random: 6 compounds from above
SMILES	hNpr1 antagonist
Cc1ccc(-c2ccc3nnc(CNC(=O)c4cc(Cl)ccc4F)n3n2)cc1	3%
CCC(=O)N(C1CCNCC1)C1CCOCC1	0%
CN(C)C(=O)CN1CCCC(N2CCN(c3cccc(C(F)(F)F)c3)CC2)C1 (configuration not stated)	5%
COc1ccc(C(=O)N2CCC3(CC2)OC(=O)N(Cc2ccc(O)cc2)C3(C)c2ccccc2)cn1 (configuration not stated)	-12%
COc1ccc(-c2ccc3c(c2)C(=O)N2CC[C@H](NC(=O)CSC)C[C@H]2C(=O)N3)cc1	2%[70.6 µM]
O=C1c2cc(N3CCOCC3)nc(-c3cnc4[nH]ccc4c3)c2CN1CC1CC1	-4%[70.6 µM]

Further entries
SMILES	hNpr1 antagonist
Cc1cn2nc(C(=O)Nc3ccc(N(C)C)cc3)cc2c(N2CCSCC2)n1	-2%
O=C(NCc1ccncc1)c1ccc2nccn2c1	0%
Cc1nn2c(c1-c1ccccc1C(C)C)N(Cc1ccc(F)cc1)CCC2	-15%[70.6 µM]
Cc1ccc(-c2noc([C@@H]3C[C@H](NC(=O)Nc4ccc(Cl)cc4)CN3C)n2)cc1	-12%[70.6 µM]
Cc1cc(=O)[nH]c(NCCNc2nccc(-c3cccnc3)n2)n1	2%
CNC(=O)[C@@H]1C[C@H](Oc2cccnc2)CN1S(=O)(=O)c1cccs1	3%
O=C(NCc1ccccc1)C1CC(c2ccccc2)CN(C(=O)c2ccccc2F)C1 (configuration not stated)	-3%
Cc1ccc2nc(CO[C@H]3CN(Cc4ccc5c(c4)OCO5)C[C@H]3F)[nH]c2c1	?
O=C1N(CCc2ccccc2)CCOC12CCN(Cc1ccc3cn[nH]c3c1)CC2	?
Cc1cnc(C2CCOCC2)n1C1CCN(C(=O)C(C)Oc2ccccc2)CC1 (configuration not stated)	-1%
Cc1cc2c(c(=O)n(-c3ccc(F)cc3)c(=O)n2CC(=O)Nc2ccccc2C(F)(F)F)n1C	-9%
COCCNC(=O)[C@@H]1C[C@H](Oc2cccnc2)CN1C(=O)CC1CCCCC1	-3%
Cc1cc(CNc2ccc(-c3nc(CCCc4ccccc4)no3)cn2)no1	?
O=C1CCCCC(CNC(=O)c2cccnc2)N1 (configuration not stated)	0%
COCCOC1CN(C2CCN(C(=O)c3ccco3)CC2)C12CCCCC2 (configuration not stated)	-1%
Cc1ccc(N2Cc3c(NCCO)ncnc3N(C)CC2=O)cc1	-3%[70.6 µM]
O=C(NCC1CCCO1)c1cc(-c2ccccc2F)cc2c1OCCN2Cc1cccnc1 (configuration not stated)	-8%
CCn1cc(CN(C)C(=O)[C@H]2CN(Cc3ccccc3)C[C@H]2C(=O)O)c(C)n1	-5%
O=C(Cc1ccc(F)cc1)N1CCc2nc(-c3ccc(Cl)cc3)nc(-c3ccccc3)c2C1	8%
CC(=O)NC1(C)CCN(Cc2cccc(-c3cccc4ncccc34)c2)C1 (configuration not stated)	5%[70.6 µM]
O=C(Cn1cccc1-c1nc(-c2ccc(F)cc2)no1)Nc1ccc(F)cc1	-16%
O=C(NCC1CCCN(S(=O)(=O)c2ccc3c(c2)OCCO3)C1)c1cccs1 (configuration not stated)	?
Cc1nn(C)cc1CN1CCC2(CCN(Cc3cccnc3)CC2)C(CO)C1 (configuration not stated)	8%
COc1cccc(CCN2CC[C@H]3CN(C(=O)Nc4ccc(F)cc4)CC[C@H]3CC2=O)c1OC	7%

Some of these compounds in order of the hNpr1 antagonist value, rising:
Structure	hNpr1 antagonist
COc1ccc(C(=O)N2CCC3(CC2)OC(=O)N(Cc2ccc(O)cc2)C3(C)c2ccccc2)cn1 (configuration not stated)	-12%
COC(=O)C1=C(C)N=C2SC=C(CC(=O)NCC3CCCO3)N2C1c1ccccc1OC (configuration not stated)	-1%
CN(C)C(=O)CN1CCCC(N2CCN(c3cccc(C(F)(F)F)c3)CC2)C1 (configuration not stated)	5%

(list continues)
SMILES	hNpr1 antagonist
O=C(c1ccccc1F)N1CCC2(CC1)CC(c1cccnc1)=NO2	-12%
COc1ccc(-c2cc(C[C@H]3CNCC[C@H]3CC(=O)N3CCOCC3)no2)cc1	-9%[70.6 µM]
O=C(c1csc(N2CCN(c3ccccc3)CC2)n1)N1CCN(C2CCCCC2)CC1	-9%
O=C1CCCN1CC(=O)N1CCC(c2nc(CCOc3ccc(F)cc3)no2)C1 (configuration not stated)	-10%
COc1ccc2[nH]cc(CCNC(=O)C3CCCN(C(C)=O)C3)c2c1 (configuration not stated)	9%
COCCOC1CCOC2(CCN(C(=O)c3ccc4ccccc4n3)CC2)C1 (configuration not stated)	0%
C=CCOC(=O)Nc1nc2c(s1)C[C@@H]1[C@](C)(CO)[C@H](O)CC[C@@]1(C)[C@@H]2CC(=O)NC(C)C	-3%
COC(=O)[C@H]1CCCN1C(=O)[C@@H]1C[C@@H](NS(=O)(=O)c2cccs2)CCN1C(=O)COCC(=O)O	0%
CCN(C(=O)CN1C(=O)NC2(CCOCC2)C1=O)c1ccccc1	19%
COc1cccc2c1OCC(C(=O)N1C[C@@H]3[C@H](C1)[C@H]1CC[C@@H]3O1)C2 (some centres not stated)	-1%
COCCOC1CCOC2(CCN(C(=O)c3ccncc3)CC2)C1 (configuration not stated)	-29%
Cc1cc(F)ccc1OC1CN(Cc2ccsc2)C1	-1%[70.6 µM]
Cc1ccc(OCC(=O)N2CCCN(S(C)(=O)=O)c3ccccc32)cc1	2%
CCc1[nH]c2c(CNC(=O)C3(C)CCCCO3)cc(F)cc2c1C (configuration not stated)	-2%
O=C(CC1CCCC1)NCCC1CCN(C(=O)Nc2ccc(F)cc2)CC1	2%
Fc1ccc(CNc2cc3c(cn2)CN(Cc2ccncc2)CCN3)cc1	2%[70.6 µM]
CN(C)C[C@@H]1CN(S(C)(=O)=O)C[C@H]1NC(=O)c1cccs1	2%
O=C(c1ccccc1F)N1CCC(n2cc(-c3nc(C4CC4)no3)nn2)C1 (configuration not stated)	-5%
COC[C@@H]1CN(C(=O)c2ccc(F)c(F)c2)C[C@H]1C(N)=O	5%
CCc1cc(=O)n(CC(=O)Nc2ccc(N(C)C)cc2)c(-c2cccc(F)c2)n1	-20%
COc1ccc(CNC(=O)CC[C@@H]2CNC(=O)[C@@H]3C[C@H](NCc4ccccc4)CN23)cc1	3%
CNC(=O)[C@@H]1C[C@H](Oc2cccnc2)CN1	1%
CCn1cc(S(=O)(=O)N2CC(F)(F)C[C@H]2c2nnc(C)o2)cn1	3%
CCOc1ccc(CC(=O)N[C@@H]2CN(S(C)(=O)=O)C[C@H]2CN(C)C)cc1	1%
Cc1nc(-c2ccc(OC3CCN(C(=O)c4cc(C)n(C)n4)C3)cc2)no1 (configuration not stated)	?
Cc1[nH]c2c(F)cccc2c1CC(=O)N1CCCC(c2nc(C(C)C)no2)C1 (configuration not stated)	-10%
COc1cccc(CN2CCCOCCNC(=O)[C@@H]3CCCC[C@@H]32)c1OC	2%
CCN1C(=O)Cc2cc(C(=O)NC(C)c3ccccc3)ccc21 (configuration not stated)	3%
O=C(NCCn1cccc1-c1nc(-c2ccc3c(c2)OCO3)no1)c1ccc(F)cc1	?
CS(=O)(=O)c1ccc(OCC2(CNC(=O)N3CCOCC3)C[C@@H](O)[C@@H](O)C2)cc1 (some centres not stated)	0%[70.6 µM]
O=C(CC1CCCC1)N1CCCC(c2noc(COc3ccccc3)n2)C1 (configuration not stated)	-29%
O=C(Nc1ccccc1Cl)N1CCC(Oc2ncccc2C(=O)N2CCCCC2)C1 (configuration not stated)	0%
COc1cccc(C(=O)N2CCC3(CC2)OCC(C(=O)NC(C)C)N3C(=O)c2ccccc2C)c1 (configuration not stated)	-6%
CCOc1ccc(CC(=O)NCCn2ccn3nc(-c4cccc(OC)c4)cc3c2=O)cc1	-8%
Cc1cccc(NC(=O)NCC2CCOCC2)c1C	7%
COCCCNC(=O)C(NC(=O)c1ccc(F)cc1)C1CCN(C(=O)C2CC2)CC1 (configuration not stated)	0%
Cn1cc(CN2CCn3c(nnc3[C@@H]3C[C@@H](O)CN3Cc3cccnc3)C2)c2ccccc21	1%
COc1ccc(C)cc1NC(=O)Cn1c(=O)c(-c2noc(C)n2)c2n(c1=O)CCCCC2	2%
Cc1ccc(NC(=O)NCC2CCOCC2)cc1F	-1%
CC(C)[C@H]1CN(Cc2ccc(C(F)(F)F)nc2)C[C@@H]1NC(=O)CO	-5%
Cc1nc(CC(=O)NC(C)c2cnn(-c3ccccc3)c2C)cs1 (configuration not stated)	-2%
CCOc1ccc2c(n1)CCN(C(=O)c1cc(C)nn1C)C2	-3%
CCOc1ccccc1C(=O)N1CCN(C(=O)c2nnn3c2COC(c2ccccc2)C3)CC1 (configuration not stated)	0%
CC(NC(=O)C1CCCN(c2cnc3nccnc3c2)C1)c1ccccn1 (configuration not stated)	-2%
CC(C)c1noc(C2CCCN(Cc3cccnc3)CCC(=O)NCC2)n1 (configuration not stated)	6%
Cc1cccc(OCC(=O)c2ccc3c(c2)N(CC(=O)N(C)Cc2ccccc2)C(=O)CO3)c1	-1%
COC1CCOC2(CCN(C(=O)NCCc3ccccc3)CC2)C1 (configuration not stated)	-3%
CC(C)c1nccn1CCCNC(=O)c1ccc(-c2ccc(F)cc2)nc1	1%
CN1CCCC2(C1)CN(C)c1ccc(C(=O)NCCc3ccccc3)cc12 (configuration not stated)	-1%[70.6 µM]
CN1CCN(C(=O)c2cc(=O)[nH]o2)CC12CCC(=O)N(CCO)CC2 (configuration not stated)	-13%
CC(Cn1cccn1)C(=O)N1CCC(Oc2ccccc2)(C(=O)O)CC1 (configuration not stated)	4%

Not all compounds are listed; rates above refer to the full screens.
